Source: PubChem BioAssay
RE007 growth inh = qHTS Assay for Inhibitors of the HIV-1 protein Vpr; S. pombe RE007 Vpr strain, BacTiter-Glo ATP luminescence, 24 h; control for the full effect not named in the record; Potency, µM (titrated, usually from 92.2 µM), inactives show at the highest dose activity change, negative = less growth; 0.21% of 360,000 active; AID 651644, 2012; active = well fitted falling curve with a large enough effect; inconclusive = small, poorly fitted or top-dose-only effect; inactive = no such curve, though single readings can be large or run the other way;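 further: nearly all actives have a fitted effect of over 50% in size; the assay follows cell death caused by Vpr and the record does not say whether a fall means rescue or toxicity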
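Fission yeast strain RE007, carrying one chromosomally integrated HIV-1 vpr copy, was seeded at OD 0.01 in PMG+AL medium with 23 nL pinned compound. After 24 h at 30 °C and 99% humidity, viability was read by BacTiter-Glo luminescence.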
StopGo reporter = High Throughput Screening for Foot and Mouth Disease Virus Antivirals | AID 1159524, 2015 | 1.2% of 410,000 active | human cells with a luciferase reporter of 2A StopGo recoding; control for the full effect not named in the record | Potency, µM (highest dose often 57.9 µM), for inactives: at the top dose signal change, negative = less light; active = well fitted falling curve with a large enough effect; inconclusive = small, poorly fitted or top-dose-only effect; inactive = no such curve, though single readings can be large or run the other way; tested in HEK293T cells; further: nearly all actives have a fitted effect of over 45% in size; luciferase light after 4 h
* marks the source's active call; other numbers are inactive results; ? = inconclusive; [ ] = remark or other dose. On the % scale 0 is the no-effect control and ±100 the full control effect; potency means the concentration at half of the fitted maximal effect. These rows are one share of the data; rates above refer to the full screens.

nr | SMILES | StopGo reporter | RE007 growth inh
1 | CC(C)(C)c1ccc(OCCCC(=O)Nc2nnc(C3CC3)s2)cc1 | ? | -8.7%
2 | COc1ccc(CN2C(=O)c3ccccc3C2c2nnnn2C(C)C)cc1OC (configuration not stated) | -9.9% | 4.8%
3 | Nc1nc2c(ncn2[C@@H]2O[C@H](CNCc3ccc4ncccc4c3)[C@@H](O)[C@H]2O)c(=O)[nH]1 | -11.2% | 1.7%
4 | Cc1ccc(C)c(C(O)c2ncc(-c3ccc(Cl)cc3)[nH]2)c1 (configuration not stated) | -0.1% | -6.7%
5 | O=[N+]([O-])c1cccc(/C=C2\CCc3cnn(C4CCS(=O)(=O)C4)c32)c1 (configuration not stated) | ? | -2.8%
6 | Cc1cc(F)ccc1-c1cc(C(=O)NCc2ccco2)[nH]n1 | 31.6%[activator] | 8.2%
7 | O=C1NC(Cc2ccc(O)cc2)c2nc3ccc(Br)cc3c(=O)n2-c2cc3ccccc3cc21 (configuration not stated) | ? | 8.2%
8 | Cc1cc(NS(=O)(=O)c2ccc(NC(=O)c3ccc(Cl)nc3)cc2)nc(C)n1 | 0.0% | -3.1%
9 | CC[C@H]1CN2CCC1C[C@@H]2[C@@H](O)c1ccnc2ccc(OC)cc12 (some centres not stated) | -23.5% | -2.3%
10 | COCCCN1C(=O)C(CC(=O)NCc2ccco2)CC(C(=O)N(C(C)C)C(C)C)=C1C (configuration not stated) | -21.1% | 10.9%
11 | COCCNC(=S)N(C)[C@H]1C[C@H]2c3cc(-c4ccccc4)ccc3CCN2C(=O)[C@H]1[C@H](C)O | 3.2% | 2.1%
12 | COc1ccc(-c2noc(-c3csc([C@@H]4O[C@H](CO)[C@H](O)[C@H](O)[C@H]4O)n3)n2)cc1OC | 9.8% | -5.5%
13 | COc1ccc([C@H]2C[C@@H](O)[C@H](n3cc(C4CC4)nn3)CN2Cc2cccs2)cc1 | -7.0% | -22.8%
14 | Cc1ccsc1C(=O)OCC(=O)NC1CCCCC1 | 0.0% | -5.5%
15 | CCCCN1C(=O)C(CC(=O)NC(c2ccccc2)c2ccccc2)CC(C(=O)N(CC)CC)=C1C (configuration not stated) | -15.6% | -4.1%
16 | CCCOc1ccc(C(=O)CCC(=O)OCC(=O)N2CCN(S(=O)(=O)c3ccc(C)cc3C)CC2)cc1 | 8.3% | 2.7%
17 | CC1(C(=O)NS(=O)(=O)c2ccc(Br)cc2)CCN1C(=O)Cc1cccs1 (configuration not stated) | 13.2% | 0.7%
18 | COc1ccccc1NS(=O)(=O)c1ccc(C(=O)NCC(c2ccccc2OC)N2CCCC2)cc1 (configuration not stated) | -3.9% | -1.0%
19 | CC1=C(C(=O)N(C)C)CC(CC(=O)NC2CCCCC2)C(=O)N1Cc1ccccc1 (configuration not stated) | -14.8% | -32.6%
20 | O=C(O)c1c(-c2ccccc2)cnc2ccccc12 | -7.1% | -3.2%
21 | COCCNC(=O)C1(C)CCCN(Cc2ccc3ccccc3c2Br)C1 (configuration not stated) | -17.7% | -15.3%
22 | CCCCNC(=O)C[C@@H]1C[C@@]2(C(=O)OCC)CCC=C2N(Cc2ccc(Cl)cc2Cl)C1=O | 13.7% | 10.0%
23 | CCC(=O)N1CCC1(C)C(=O)Nc1cccc(OC)c1OC (configuration not stated) | -0.9% | 6.1%[18.4 µM]
24 | Cn1cc(S(=O)(=O)NC[C@H]2O[C@@H](n3ccc(=O)[nH]c3=O)[C@H](O)[C@@H]2O)cn1 | -3.7% | -13.7%
25 | CC(C)CNC(=O)C1(C)CCCN1C(=O)CSc1ccccc1 (configuration not stated) | -7.7% | -6.2%
26 | c1ccc2c(c1)ncn2-c1cncnc1 | -7.5% | 4.8%
27 | Cc1cccc(CN(C)C[C@@H]2OCc3cnnn3CCCC(=O)N([C@@H](C)CO)C[C@H]2C)c1 | -7.0% | 6.4%
28 | C[C@@H](NC(=O)c1[nH]cnc1C(=O)Nc1ccccc1F)c1ccccc1 | -24.1% | -2.4%
29 | COC(=O)c1ccc2nc(-c3ccc(Cl)cc3)c(Cc3ccc(OC)cc3C)n2c1 | -6.7% | -5.8%
30 | CO[C@H]1CN(C)C(=O)c2cc(NC(=O)c3ccccc3)ccc2OC[C@H](C)NC[C@@H]1C | -16.7% | -2.8%
31 | OC(c1cccc(Cl)c1)c1nc(-c2ccccc2)cs1 (configuration not stated) | -7.6% | ?
32 | COc1cccc(-c2cc(NC=O)c3ncc(-c4cccc(C(=O)NCCN(C)C)c4)n3c2)c1 | -15.9% | -24.9%[18.4 µM]
33 | CC(=O)NCCNc1nc(NC(C)C)nc2cc(-c3ccccc3)sc12 | -10.6% | -6.5%[18.4 µM]
34 | CC(C)NC(=O)C1(C)CCN1C(=O)c1cccn1C (configuration not stated) | 2.5% | -6.4%[18.4 µM]
35 | COCCCN1C(=O)C(CC(=O)NC(c2ccccc2)c2ccccc2)CC(C(=O)N(C)C)=C1C (configuration not stated) | -17.1% | -5.7%
36 | O=C(Nc1ccccc1Cl)c1cc(C2CCCCN2C(=O)CCc2ccccc2)on1 (configuration not stated) | -24.4% | 9.7%
37 | O=C(OCc1ccccc1)N1CCC2CC1c1ccc(N3CCN(Cc4ccc5c(c4)OCO5)CC3)cc12 (configuration not stated) | -21.8% | -15.9%
38 | Cc1cnc(-c2nc3ccccc3n2C(C(=O)NC(C)(C)C)c2cc3ccccc3o2)cn1 (configuration not stated) | 14.7% | 1.5%
39 | CN1C(=O)N(CC(=O)c2ccc3c(c2)OCO3)C(=O)C12CCCCC2 | -5.4% | 8.6%
40 | O=c1oc(=S)oc2c1[C@H](c1ccc(Cl)cc1)O[C@H](C1CC1)C2 | -19.9% | 0.3%
41 | Cc1cc(C)cc(C(O)c2ncc(-c3ccccc3C)[nH]2)c1 (configuration not stated) | 32.6%[activator] | 8.5%
42 | CN1OC[C@@H]2CN(C(=O)c3ccco3)[C@H](c3ccc(-c4ccc(C#N)cc4)cc3)C[C@@H]21 | -21.1% | 7.5%
43 | COc1ccc(-c2cc3c(o2)CCCC3OCCN2CCOCC2)cc1 (configuration not stated) | 9.1% | -12.6%
44 | CC(C)NC(=O)N(C)C[C@H]1OCCCC[C@H](C)Oc2ccc(NC(=O)NC3CCCCC3)cc2C(=O)N([C@H](C)CO)C[C@@H]1C | -9.5% | 10.1%
45 | CNC[C@@H]1OCc2ccccc2-c2ccccc2C(=O)N([C@@H](C)CO)C[C@@H]1C | -9.9% | 15.7%
46 | C=CCOC(=O)Nc1nc(CCNC(=O)OCc2ccccc2)c(C(=O)OC)s1 | -16.2% | -2.1%
47 | CS(=O)(=O)c1cc(C(=O)O)cc(NCc2ccccc2)c1Oc1ccccc1 | -23.9% | 0.9%
48 | Cc1cccc(C)c1NC(=O)C(c1ccccc1)n1c(-c2ccccc2)nc2ccccc21 (configuration not stated) | -11.1% | -2.7%
49 | CC(=O)Nc1ccc(C(=O)N2CCCC(c3cc(C(=O)NCc4ccccc4)no3)C2)cc1 (configuration not stated) | -11.8% | -2.6%
50 | CCOC(=O)[C@]12CCC=C1N(Cc1ccc3c(c1)OCO3)C(=O)[C@H](CC(=O)NCCC(C)C)C2 | 15.1% | 9.1%
51 | CN1OC[C@@H]2CN[C@H](c3cccc(-c4ccc(C#N)cc4)c3)C[C@@H]21 | -17.6% | 3.8%
52 | CC1=C(C(=O)N(C)C)CC(CC(=O)NCc2cccs2)C(=O)N1Cc1ccc(C(C)(C)C)cc1 (configuration not stated) | -3.0% | 4.1%
53 | O=C(CN1CCN(S(=O)(=O)c2ccc(Br)s2)CC1)N1CCc2ccccc21 | ? | 11.8%
54 | Cc1ccc(F)cc1-c1nc(NCC2CC2)nc2ccsc12 | -10.8% | -12.3%
55 | CN(C(=O)c1cccc(NC(=O)Cc2ccc(NC(=O)C3CCCN(C(=O)CCc4ccccc4)C3)cc2)c1)C1CC1 (configuration not stated) | ? | -1.9%
56 | CSCCC(NC(=O)c1ccccc1Cl)C(=O)NCC(c1ccc(F)cc1)N1CCOCC1 (configuration not stated) | 7.8% | 0.8%
57 | CC1(C)CC(NC(=O)c2ccc(F)cc2)CC(C)(C)N1 | -5.2% | -10.8%
58 | O=C(CCC(F)(F)F)N1CCCC(N2CCN(c3cccc(Cl)c3)CC2)C1 (configuration not stated) | 17.1% | 2.7%
59 | CCOC(=O)c1ccc(-n2cnc(-c3ccc([N+](=O)[O-])cc3)c2)cc1 | 13.9% | -3.6%
60 | CCNC(=O)CC1SC(=Nc2ccc(C)c([N+](=O)[O-])c2)N(C)C1=O (configuration not stated) | -11.2% | -9.8%

Reprinted from above for reference:
nr | SMILES | StopGo reporter | RE007 growth inh
1 | CC(C)(C)c1ccc(OCCCC(=O)Nc2nnc(C3CC3)s2)cc1 | ? | -8.7%
2 | COc1ccc(CN2C(=O)c3ccccc3C2c2nnnn2C(C)C)cc1OC (configuration not stated) | -9.9% | 4.8%
3 | Nc1nc2c(ncn2[C@@H]2O[C@H](CNCc3ccc4ncccc4c3)[C@@H](O)[C@H]2O)c(=O)[nH]1 | -11.2% | 1.7%

Following part
nr | SMILES | StopGo reporter | RE007 growth inh
61 | COc1ccc2c(c1)C(CC(C)=O)N(c1ccc(-c3cnc(OC)nc3)cc1)C(c1ccsc1)=C2 (configuration not stated) | -13.1% | -8.6%
62 | CCOc1cc(CN2CCC(N3CCC(C(=O)NC4CC4)CC3)CC2)ccc1O | -23.1% | 3.8%
63 | CC(=O)C[C@@H]1OC[C@H](Cc2ccccc2)N1S(=O)(=O)c1ccc(C)cc1 | 7.5% | -23.3%
64 | CC1(C(=O)NS(=O)(=O)c2cccc(OC(F)F)c2)CCN1C(=O)CC(c1ccccc1)c1ccccc1 (configuration not stated) | -9.9% | 15.7%[18.4 µM]
65 | Cc1cc(C(=O)N2CCC2(C)C(=O)Nc2ccc3[nH]ncc3c2)nn1C (configuration not stated) | -14.4% | 37.0%
66 | CC(C)Oc1ccc(F)cc1-c1cc(C(=O)N2CCc3ccccc3C2)[nH]n1 | -7.5% | -4.1%
67 | CC1(C(=O)Nc2ccc3ccccc3c2)CCC(=O)N1CCOc1ccccc1 (configuration not stated) | -7.6% | 1.3%
68 | NC(c1csc(Nc2ccc(C(F)(F)F)cn2)n1)C1CCCCC1 (configuration not stated) | -28.2% | 15.3%[18.4 µM]
69 | COCCc1ccc(OC2(C)CCN(Cc3cccc(OC)c3OC)C2)cc1 (configuration not stated) | -13.7% | -13.0%
70 | O=C(NCc1cccc(Br)c1)C1CC(c2ccccc2[N+](=O)[O-])=NO1 (configuration not stated) | 15.9% | -3.8%
71 | CC(C)(C)OC(=O)N(CC1CCNCC1)C(=O)c1[nH]c(C(F)(F)F)nc1-c1ccccc1 | -15.4% | -5.7%
72 | CNC(C)C(=O)NC(C(=O)NC(C)C(=O)Nc1cccc2ccccc12)C(C)C (configuration not stated) | -20.5% | 3.2%
73 | CC1=C(C(=O)N(C(C)C)C(C)C)CC(CC(=O)NCCCCc2ccccc2)C(=O)N1Cc1ccc(C(C)(C)C)cc1 (configuration not stated) | ? | 2.5%
74 | COc1ccc(NC(=O)N(C)C[C@H]2OCCCC[C@@H](C)Oc3ccc(NC(=O)c4ccccc4)cc3C(=O)N([C@H](C)CO)C[C@@H]2C)cc1 | -9.6% | -23.2%
75 | O=C(Nc1nccs1)c1cnc2sccn2c1=O | 7.9% | -2.5%
76 | Cc1cc(C)nc(Nc2nc(C(N)Cc3ccccc3)cs2)n1 (configuration not stated) | 13.4% | -19.4%
77 | CC(OC(=O)/C=C/c1ccco1)C(=O)NC1CCCCC1 (configuration not stated) | -3.3% | -0.4%
78 | O=C(CCc1nc2ccccc2c(=O)[nH]1)N1CCN(S(=O)(=O)c2cc(Cl)ccc2Cl)CC1 | -1.0% | -2.6%
79 | O=C(Nc1ccccc1)Nc1ccc(Nc2ccccc2)cc1 | 60.8%[activator] | 3.5%
80 | N#Cc1ccc(-c2cccc3nccn23)cc1 | -8.9% | -0.3%
81 | CCN1C(=O)[C@H]2[C@@H](c3ccc(C(F)(F)F)cc3)N[C@]3(CCCN(Cc4cccn4C)C3=O)[C@H]2C1=O | -19.7% | 3.4%
82 | COc1ccccc1CNc1nc(NC(C)C)nc2cc(-c3ccccc3)sc12 | -6.1% | -5.4%
83 | CCCCN(C)C(=O)c1sc(=O)n(Cc2ccc(Cl)c(Cl)c2)c1C | -29.7% | -4.2%[18.4 µM]
84 | COc1ccc(C2=C(c3ccccc3)OC(OC)c3cc(F)ccc32)cn1 (configuration not stated) | -20.3% | 8.4%
85 | CN1CCN(c2cccc3c2S(=O)(=O)N[C@@H](Cc2ccccc2)CO3)CC1 | -14.5% | -11.1%
86 | CCCCN(C(C)=O)c1c(CC)nc2ccc(C(=O)NCc3cccs3)cn12 | 20.2% | -3.4%
87 | CC(C)c1ccc(S(=O)(=O)N2CCN(C(=O)c3cccc(S(=O)(=O)N4CCOCC4)c3)CC2)cc1 | -22.2% | 4.4%
88 | COc1ccc(C(NC(=O)C2CCN(CCCc3ccccc3)CC2)c2cccs2)cc1 (configuration not stated) | -11.0% | -10.2%[18.4 µM]
89 | CC1(C(=O)N2CCCCC2)CCN1C(=O)Cc1ccc(-c2ccccc2)cc1 (configuration not stated) | 7.4% | 9.4%
90 | O=c1c(-c2cccnc2)nc2ccccc2n1C(CCc1ccccc1)c1nc2ccccc2[nH]1 (configuration not stated) | -8.1% | 0.0%
91 | CCOc1ccccc1C(=O)NC(C)CCc1ccccc1 (configuration not stated) | -3.2% | 1.6%
